Compound activity: PubChem BioAssay, Fisher Drug Discovery Resource Center
NPYLR7 ag: activates Aedes aegypti NPYLR7 receptor | HEK293T NPYLR7/Galpha15, GCaMP6s calcium fluorescence | activation, % at 10 µM | 270,000 tested, 0.15% active | AID 1259423; in the data active = activation above about 40%;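 also: 0% = vehicle and 100% = reference agonist at the receptor; some compounds past the cut are filed as inactive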
NPYLR7 ag max-min: further read-out of NPYLR7 ag, marked with its call; activation, %; measured here: Max-Min RFU normalised activation; some inactives read as strong as hits;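 span of the calcium signal over five minutes; 0% = vehicle and 100% = native peptide agonist; compound fluorescence can raise it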
* = called active by the depositor.

Results follow in this order: NPYLR7 ag	NPYLR7 ag max-min
- C=CCN(Cc1nc2scc(-c3cccc(Cl)c3)c2c(=O)[nH]1)CC(O)COCC(C)C (stereo not drawn)
 : 15.8	18.8
- CN(Cc1nc2ccc(F)cc2[nH]1)C(=O)c1cccc(C#CC(C)(C)O)c1
 : 3.8	0.9
- COC(=O)CC(NC(=O)Cn1nc(C)c2ccccc2c1=O)c1cccs1 (stereo not drawn)
 : 0.3	-3.5
- Oc1[nH]c2ccc(Br)cc2c1N=Nc1cccc(Cl)c1Cl
 : 23.3	12.4
- CC(=O)Oc1ccc(NC(=O)CN2C(=O)c3ccccc3C2=O)c(C)c1
 : -1.0	-4.1
- CS(=O)(=O)C(C#N)=Cc1cc(Br)ccc1F
 : 3.5	2.3
- C=CCN=c1scc(-c2cccc(Br)c2)n1N=Cc1cccnc1
 : 17.7	14.1
- CN(CCC#N)C(=O)COc1c(Br)cccc1Br
 : 8.0	6.1
- O=S(=O)(c1ccc(Cl)cc1)c1ccccn1
 : 3.7	0.6
- CN(C/C=C/c1ccccc1)CC1(CO)CC1
 : -3.7	-4.5
- COc1ccc(OC)c(-c2c(C)c3cc(OCC(=O)OC(C)C)ccc3oc2=O)c1
 : -1.2	-2.5
- COC(=O)C1=C(O)/C(=C\c2ccc(C)cc2O)SC1=Nc1ccccc1F
 : -16.5	-8.4
- Cc1nn(CC(O)Cn2c(C)c(C)c3ccccc32)c(C)c1Cl (stereo not drawn)
 : -7.4	-10.4
- O=C(NC1CCN(c2ccccc2C(=O)NC2CC2)CC1)c1ccc(Cl)cc1Cl
 : 3.4	8.2
- O=C1NCC(C(=O)N2CCCC2c2cccc(Cl)c2)N1 (stereo not drawn)
 : 4.2	2.2

Results follow in this order: NPYLR7 ag	NPYLR7 ag max-min
- C=C(C)Cn1c(C(=O)N2CCN(C(=O)C3CCCC3)C(C)C2)cc2ccoc21 (stereo not drawn)
 : 24.5	31.9
- Cc1cc(C)c2oc(=O)n(C3CCN(C(=O)c4ccno4)CC3)c2c1
 : 10.4	15.3
- O=C(NCc1ccccn1)C1CCN(C2CCN(C(=O)C3=CCCCC3)CC2)CC1
 : 3.7	1.6
- C=C(C)[C@@H]1C=C2CC3(CC[C@]2(C)[C@@H](C#N)C1)OCCO3
 : -5.0	-6.5
- CCOC(=O)c1sc(NC(=O)c2cc3ccccc3oc2=O)c(C(=O)OCC)c1C
 : -2.0	-7.9
- Nc1ncnc2c1ccn2[C@H]1CN(Cc2ccc3c(c2)OCO3)C[C@@H](CO)O1
 : -15.3	-15.2
- COc1ccc(NC(=O)c2c(N)c(C(=O)c3ccc4c(c3)CCCC4)n3ccccc23)c(OC)c1
 : -3.7	-8.5
- CNc1nc2[nH]c(=O)cc(O)c2s1
 : 5.3	3.6
- CCOC(=O)C1(C)CCCN1C(=O)c1ccc(C)cc1 (stereo not drawn)
 : 1.0	-0.8
- CC(=O)Nc1ccc(NC2CC(=O)N(C)C2=O)cc1Cl (stereo not drawn)
 : 12.2	2.5
- CCOc1cccc(CN(Cc2nc[nH]c2C)C2CC2)c1
 : -3.3	-8.0
- NC(=O)NCCN1CCN(c2cccc(C(F)(F)F)c2)CC1
 : -3.4	-19.9
- Cc1cc(C)n2nc(CCCCc3nc4nc(C)cc(C)n4n3)nc2n1
 : 4.2	5.5
- CCN(CC)C(=O)c1cc(-c2ccccc2F)nc2cc(-c3ccccc3)nn12
 : -0.2	5.7
- COc1cc(CN2CCCC2c2nc(C)no2)ccc1OCC=C(C)C (stereo not drawn)
 : -0.1	-4.0

Results follow in this order: NPYLR7 ag	NPYLR7 ag max-min
- O=C(Cc1ccccc1)N1CCCC(OCc2cccc(Cl)c2)C1 (stereo not drawn)
 : -3.9	-0.1
- CC(C)c1ccc(-c2cc(N3CCCC3CO)n3nccc3n2)cc1 (stereo not drawn)
 : -2.8	-8.0
- COc1ccc(NC(=O)N2CCC3(CC2)SCCN3C(=O)c2cccc([N+](=O)[O-])c2)c(OC)c1
 : -8.9	1.4
- O=C(NCCc1ccccc1)c1cc2nc(-c3ccc(Br)cc3)cc(C(F)(F)F)n2n1
 : 5.8	3.7
- O=C(O)C1CN(C(=O)c2ccc(N3CCCCC3=O)cc2)c2ccccc2O1 (stereo not drawn)
 : -0.7	-1.6
- Cc1cccc2sc(NC(=O)CCC(=O)O)nc12
 : -6.6	-11.7
- CCc1[nH]n(-c2cccc(C)c2C)c(=O)c1C1=C(N2CCCC2)C(=O)N(C2CCCCC2)C1=O
 : -11.4	-2.1
- CC(c1ccccn1)N(C1CC1)S(=O)(=O)c1cccc(Cl)c1Cl (stereo not drawn)
 : 5.2	1.1
- Cc1c(CN2CCCC3(CC2)CN(C)C(=O)O3)c(=O)n(-c2ccccc2)n1C (stereo not drawn)
 : 3.2	3.8
- CC(C)Nc1ccc(C(=O)Nc2cccc(Cl)c2)cn1
 : -3.2	-11.8
- Cc1ccc(CSc2nnc(Cn3c(=O)sc4ccccc43)n2C)cc1
 : 7.8	7.1
- COc1ccc(-n2nnc3cnn(C)c3c2=O)cc1
 : -0.2	-1.1
- CC(=O)c1ccccc1C(=O)N1CCCC(CNC(=O)c2ccc(-c3ccccc3)cc2)C1 (stereo not drawn)
 : -1.9	-9.6
- Clc1ccc(Oc2cc(N3CCN(Cc4cccc(Cl)c4)CC3)ncn2)cc1
 : 4.1	4.2
- Cc1ncsc1CCCNC(=O)c1cccc2ccnn12
 : 0.7	-0.7

Compound profiles, as listed above. Screens in order: NPYLR7 ag, NPYLR7 ag max-min
O=C(O)C1CN(C(=O)c2ccc(N3CCCCC3=O)cc2)c2ccccc2O1 (stereo not drawn) across the screens: -0.7, -1.6
CC(c1ccccn1)N(C1CC1)S(=O)(=O)c1cccc(Cl)c1Cl (stereo not drawn) across the screens: 5.2, 1.1
O=C(Cc1ccccc1)N1CCCC(OCc2cccc(Cl)c2)C1 (stereo not drawn) across the screens: -3.9, -0.1

The results go on.
Results follow in this order: NPYLR7 ag	NPYLR7 ag max-min
- O=c1c2c(nc(SCc3ccccc3)n1Cc1ccccc1)CCS2
 : 2.7	-3.2
- CCOC(=O)c1nn(-c2ccccc2C)c(=O)cc1OS(=O)(=O)c1ccc2c(c1)OCCO2
 : -1.7	-0.4
- C=CCCC(O)CN(CCOC)Cc1c(-c2ccccc2)nn(C)c1Oc1ccccc1Cl (stereo not drawn)
 : 0.3	6.7
- CCOCCCN(CC(=O)N(Cc1cccn1Cc1ccccc1Cl)CC(C)C)C(=O)COC
 : -4.1	2.4
- C=CCn1c(O)c(N=NC(=O)c2ccc3ccccc3n2)c2cc(Br)ccc21
 : -7.5	-11.3
- Cc1ccn2c(NCc3ccccc3)c(-c3cccc(OS(=O)(=O)c4ccccc4)c3)nc2c1
 : 16.5	22.4
- C#CCNC(=O)CNC(=O)NCC(C)(C)c1ccc(Cl)cc1
 : 3.1	0.9
- CC(=O)c1ccc(Oc2cc(C)nc(SCc3ccccc3F)n2)cc1
 : 3.4	11.6
- CCCCCc1ccc(C(=O)N(CC(=O)N2c3ccccc3-n3cccc3C2c2cccc(Cl)c2)C(C)C)cc1 (stereo not drawn)
 : 3.4	13.3
- CCCCCNS(=O)(=O)c1cc2c(cc1Br)n(C)c(=O)n2C
 : 1.8	-1.3
- Cn1cnnc1SCC(=O)N=C1NC(=O)CS1
 : 0.5	-1.1
- O=C(CSc1nnc(NC(=O)c2ccccc2Br)s1)Nc1ccccc1F
 : 3.6	5.2
- Cc1ccc(OC2(C(=O)NCc3cccc(C)c3C)CCNCC2)cc1
 : -1.8	-7.9
- COCCNC(=O)C1(C)CCN1C(=O)C1(c2ccccc2)CC1 (stereo not drawn)
 : 3.6	1.7
- NC(=O)c1c(NC(=O)C=Cc2ccc(Br)o2)sc2c1CCC2
 : 10.2	16.8

SMILES	NPYLR7 ag	NPYLR7 ag max-min
N#CC(=Cc1ccccc1I)c1nc(-c2ccc(Br)cc2)cs1	0.7	0.5
Cc1nn(CC(C)C)c2c1C(c1cnn3cccnc13)CC(=O)N2 (stereo not drawn)	0.3	-0.4
COc1ccc(C(O)(c2ccc(OC)cc2)c2ccc(CN(Cc3cccc(F)c3)CC3CCCO3)o2)cc1 (stereo not drawn)	-5.8	-4.9
COC(=O)C1=C(O)/C(=C\c2ccc([N+](=O)[O-])cc2)SC1=Nc1ccccc1F	-5.7	-5.4
Cc1cc2n(n1)CCCN(C(=O)CC1COCCN1)C2 (stereo not drawn)	-4.4	-3.8
Cc1nc(N2CCOCC2)ncc1-c1cc(=O)[nH]c(NCc2ccccc2)n1	3.8	1.5
Cc1ccc(OCc2nc(CN(C(=O)C3CCCC3)C3CC3)cs2)cc1C	19.4	11.9
CCOc1cccc(C=C2SC(=S)N(CCN3CCOCC3)C2=O)c1OC	1.9	1.0
CN(Cc1ccc2nccnc2c1)C(=O)CC1(c2ccccc2)CC(=O)N(CC2CCCCC2)C1=O (stereo not drawn)	13.7	1.3
CN(Cc1nc2ccccc2n1C)C(=O)c1scc2c1OCCO2	3.8	2.5
O=C(CC1CC1)NCCCOc1cccc([N+](=O)[O-])c1	-14.2	-18.6
Cc1ccc(C(=O)N2CCCc3c(C#N)cccc32)cn1	8.2	6.2

SMILES	NPYLR7 ag	NPYLR7 ag max-min
Cc1ccc(CNC(=O)C2(C)CCN2C(=O)C2(c3ccccc3)CCCC2)cc1 (stereo not drawn)	0.4	-0.7
COc1ccc(OC)c(C2SC(C)C(=O)N2CCC(=O)NCc2cccnc2)c1 (stereo not drawn)	24.0	19.4
CCCCN(CC)C(=O)c1cc2c(OC)nc(N)nc2s1	-3.9	-5.9
CCOCCCN(CC(=O)N(CCc1ccc(OC)c(OC)c1)Cc1ccc(C)s1)C(=O)C(CC)c1ccccc1 (stereo not drawn)	-10.2	-5.4
CC1(C(=O)NCC2CC2)CCN1C(=O)C1(c2ccc(Cl)cc2)CC1 (stereo not drawn)	-3.4	-10.2
CCC(=O)N1CCC1(C)C(=O)NS(=O)(=O)c1ccc(Br)cc1 (stereo not drawn)	-0.4	-0.5
O=C(Cn1nc(-c2ccco2)c2sc(N3CCCCC3)nc2c1=O)N1CCc2ccccc21	-4.5	-7.5
CC1(C)OCC(C2OC(Nc3ccc(C(=O)NCC(=O)NCc4ccccn4)cc3)[C@H]3OC(C)(C)O[C@@H]23)O1 (stereo partly drawn)	-7.5	-12.3
CCc1ccc(CN2CCN(c3nc(N(C)C)nc(C)c3C)CC2)nc1	-3.6	-2.2
CN(C)c1nc(N)c(C#N)c(CC#N)c1C#N	4.6	6.8
CCCCn1c(O)c(C=Nc2cccc(C)c2)c(C)c(C#N)c1=O	-0.1	-2.2
c1ccc(C2Oc3ccccc3C3CC(c4ccc5c(c4)OCCO5)=NN32)cc1 (stereo not drawn)	3.9	7.0

5 successive entries out of the list so far, quoted:
SMILES	NPYLR7 ag	NPYLR7 ag max-min
Cc1ccc(CNC(=O)C2(C)CCN2C(=O)C2(c3ccccc3)CCCC2)cc1 (stereo not drawn)	0.4	-0.7
COc1ccc(OC)c(C2SC(C)C(=O)N2CCC(=O)NCc2cccnc2)c1 (stereo not drawn)	24.0	19.4
CCCCN(CC)C(=O)c1cc2c(OC)nc(N)nc2s1	-3.9	-5.9
CCOCCCN(CC(=O)N(CCc1ccc(OC)c(OC)c1)Cc1ccc(C)s1)C(=O)C(CC)c1ccccc1 (stereo not drawn)	-10.2	-5.4
CC1(C(=O)NCC2CC2)CCN1C(=O)C1(c2ccc(Cl)cc2)CC1 (stereo not drawn)	-3.4	-10.2

Remaining list, next part
SMILES	NPYLR7 ag	NPYLR7 ag max-min
O=C1c2ccccc2C(=O)c2c1oc(C(F)(F)F)c2C(=O)c1ccccc1	-8.4	-19.5
Cc1ncc(C(=O)Nc2ccc(NC(=O)c3ccccc3)nc2)s1	3.0	1.6
CCCCN(CC(=O)N(Cc1cccn1C)CC(C)C)C(=O)c1ccc(OC)cc1	-6.3	-2.2
Cc1ccc(OC(C)C(=O)Nn2cnc3ccc(Cl)cc3c2=O)cc1 (stereo not drawn)	0.8	0.3
CC(C)Cn1c2c(c(=O)[nH]c1=O)C(NC(=O)c1ccc(Cl)cc1Cl)(C(F)(F)F)C(=O)N2 (stereo not drawn)	-8.7	-16.6
Cc1ccc(-c2cc3c(=O)n(CC(=O)Nc4ccc(C(C)C)cc4)ccn3n2)cc1	7.0	8.5
Cc1ccc(-c2nnc(CSc3ncccc3C(=O)N(C)C)o2)cc1	7.7	8.9
COc1ccc(C2CCCN2Cn2[nH]c(-c3ccccc3)nc2=S)c(OC)c1 (stereo not drawn)	-0.1	5.5
Cc1ccccc1C1CC(=O)Nc2c1c(C)nn2-c1ccc(Cl)nn1 (stereo not drawn)	-0.3	-2.6
CN(C)c1ccc(N)cc1CN(CC1CCCO1)C(=O)C1CC1 (stereo not drawn)	7.5	3.8
CCOc1ccc(CC(=O)N2CCC(c3nn(C)c(=O)n3CC)CC2)cc1	-0.1	-2.3
COc1cc(C(=O)Nc2ccc(C)cc2)cc(Cl)c1OC	-12.0	-11.0

SMILES	NPYLR7 ag	NPYLR7 ag max-min
CC12CCCCC1CCC1C2CCC2(C)C1CCC2(O)CNCCO (stereo not drawn)	2.2	0.4
OC(c1ccc(-c2ccccc2)cc1)c1ncc(-c2ccccc2F)[nH]1 (stereo not drawn)	-0.7	-1.4
CSCc1ccc(S(=O)(=O)Oc2ccc(C(=O)Cn3c(C)nn(C)c3=N)cc2)cc1	-4.9	-10.1
CSc1nnc2c(n1)OC(c1ccc(Cl)cc1)Nc1ccccc1-2 (stereo not drawn)	-1.2	-2.1
CCCCn1c(C)cn2c3c(=O)n(CC(N)=O)c(=O)n(C)c3nc12	8.2	13.5
O=C(CCCS(=O)(=O)c1ccccc1)Nc1nnc(-c2cccs2)o1	14.8	13.8
COc1cccc(CNC(=O)CCC2CCCN(C(=O)CSc3ccccc3)C2)c1 (stereo not drawn)	4.5	6.9

An excerpt. The share of hits here may be higher or lower than overall.
